# KAT2A inh: blocks human GCN5L2 histone acetyltransferase; Q92830; GCN5L2 HAT assay, ThioGlo1 CoA-SH fluorescence; Potency, µM (doses to about 58.9 µM), without a hit: at the highest dose activity change, negative = inhibition, usual class: inhibitors; actives 0.21% (n = 390,000); active = well fitted inhibition curve with a large enough effect; inconclusive = small, poorly fitted or top-dose-only effect, or another doubt; inactive = no such curve, though single readings can be large or run the other way
# Target sequence (Q92830 whole entry, looked up): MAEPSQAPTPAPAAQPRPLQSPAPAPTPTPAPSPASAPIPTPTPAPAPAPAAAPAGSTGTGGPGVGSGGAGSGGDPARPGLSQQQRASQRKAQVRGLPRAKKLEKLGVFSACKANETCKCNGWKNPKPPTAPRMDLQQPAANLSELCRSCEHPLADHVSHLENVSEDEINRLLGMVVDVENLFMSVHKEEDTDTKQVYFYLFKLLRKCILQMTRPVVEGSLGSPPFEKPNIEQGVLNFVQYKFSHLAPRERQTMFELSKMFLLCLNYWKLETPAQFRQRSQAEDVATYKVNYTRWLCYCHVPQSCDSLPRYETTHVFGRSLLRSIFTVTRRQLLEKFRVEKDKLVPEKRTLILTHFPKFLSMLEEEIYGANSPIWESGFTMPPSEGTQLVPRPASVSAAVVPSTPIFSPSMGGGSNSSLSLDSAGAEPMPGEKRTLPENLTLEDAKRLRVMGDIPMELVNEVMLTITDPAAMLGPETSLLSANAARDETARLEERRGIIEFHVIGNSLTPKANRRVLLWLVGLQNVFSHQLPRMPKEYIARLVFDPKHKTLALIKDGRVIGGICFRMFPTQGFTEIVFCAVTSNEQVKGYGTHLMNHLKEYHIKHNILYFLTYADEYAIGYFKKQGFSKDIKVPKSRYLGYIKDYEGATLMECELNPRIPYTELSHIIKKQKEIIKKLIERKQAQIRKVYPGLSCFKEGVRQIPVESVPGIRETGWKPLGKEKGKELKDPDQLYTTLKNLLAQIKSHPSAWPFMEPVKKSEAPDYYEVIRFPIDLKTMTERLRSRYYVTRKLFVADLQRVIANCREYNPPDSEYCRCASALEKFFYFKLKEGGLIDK
#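 Free CoA generated was detected with ThioGlo1 (50uM) fluorescence at Ex340nm/Em540nm, read immediately and after 20 min at room temperature. Enzyme, 20 nM in HEPES pH 7.5 buffer, saw compounds 15 min before adding 75uM H3(1-25) peptide and 70uM acetyl-CoA.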
# An asterisk follows results filed as active; ? = inconclusive; & = joins results of further samples; [ ] = dose if it differs, or a comment. % is set by controls: 0 for no effect and ±100 for the full control effect; potency is the fitted concentration of half-maximal effect.
SMILES,KAT2A inh
Cc1ccc(-n2cnc3c(sc4nc(N5CCOCC5)c5c(c43)CCCC5)c2=O)cc1,-2%
O=C(CSc1nnc(Nc2ccccc2)s1)Nc1cccc(S(=O)(=O)N2CCCCC2)c1,2%
COCC(=O)N/N=C\c1cccc(OC)c1OC/C=C/c1ccccc1,-7%
COc1cc(/C=C(\C#N)C(=O)Nc2ccccc2F)ccc1OCCN1CCOCC1,-12%
Cc1ccc(C(=O)COC(=O)CCS(=O)(=O)c2ccccc2)cc1[N+](=O)[O-],-19%
CC(C)c1ccc(/C=C2\SC(=O)N(CC(=O)NC3C=CS(=O)(=O)C3)C2=O)cc1 (stereo unspecified),-28%
CC1CC(C)CN(C(=O)CN2C(=O)NC(c3ccccc3)(c3ccccc3)C2=O)C1 (stereo unspecified),-1%
CCOC(=O)c1ccc(NC(=O)c2ccc(CN3CCOCC3)cc2)cc1,-15%
COc1ccccc1C(=O)N1CCN(c2ccccn2)CC1,-13%
CCNc1cc2oc(=O)c(CN3CCOCC3)c(C)c2cc1C,?
O=S(=O)(c1ccc(Cl)s1)N1CCC(Cc2ccccc2)CC1,1%
O=C(c1ccc2c(c1)OCO2)N1CCC2(CC1)Oc1ccc(F)cc1C(=O)C21CC(c2ccccc2)=NO1 (stereo unspecified),1%
COc1cc(OC)cc(N2CCN(S(=O)(=O)c3ccc(-n4cnnn4)cc3)CC2)c1,-1%&-7%
O=C1CCc2cc(S(=O)(=O)Nc3ccccc3F)ccc2N1,-3%
CN(C/C(O)=C(\C#N)c1ccccc1)C1CCCCC1,-1%
COc1cc2nc(CN(C)Cc3ccc(OC)c(OC)c3OC)[nH]c(=O)c2cc1OC,-7%
O=C(CN1CCN(S(=O)(=O)/C=C/c2ccccc2)CC1)NC(=O)NCc1ccco1,-9%
CC(=O)Nc1ccc(S(=O)(=O)Nc2nc3cc4c(cc3nc2Cl)OCCO4)cc1,-16%
Cc1nn(-c2ccccc2)c(Cl)c1/C=N/NC(=O)c1ccn[nH]1,-8%
C/C(=N\N(Cc1ccccc1)c1ccccc1)c1ccncc1,-12%
CCOc1ccccc1NC(=O)c1ccc2c(c1)CCN2S(=O)(=O)c1ccc(C)cc1,-7%
COCCNC(=O)c1cn(C)c2ccccc2c1=O,-7%
COc1ccc(/C=C/c2ccncc2)cc1,2%
O=C(NCc1ccccc1Cl)c1ccc2c(c1)ncn2-c1cccc(F)c1,-7%
COc1ccc(NC(=O)Cn2c(=O)n(-c3ccccc3)c(=O)c3c4c(sc32)CCCC4)c(OC)c1,-5%
COc1cccc(-n2c(C)nc3c(cnn3-c3ccc(C)cc3)c2=O)c1,0%
CCOC(=O)C1CCN(C(=O)COc2ccc(S(=O)(=O)N3CCOCC3)cc2)CC1,-6%
C[C@H]1CN([C@@H](C)CO)C(=O)c2cccc(NC(=O)C3CC3)c2O[C@H]1CN(C)CC1CCCCC1,1%
C#C[C@]1(O)CC[C@H]2[C@@H]3CCC4=C(CCC(=O)C4)[C@H]3CC[C@@]21C,-2%
CC(C)(C)c1ccc(NC(=O)C2CCCN(c3cnccn3)C2)cc1 (stereo unspecified),-10%&-7%
COc1ccccc1N1CCN(S(=O)(=O)c2c[nH]c(=O)[nH]c2=O)CC1,-5%
COc1ccc(CC(NC(C)=O)C(=O)NC2CCN(c3nnnn3-c3ccccc3)CC2)cc1 (stereo unspecified),-5%
COc1ccc2cc(CCNC(=O)c3ccc(S(=O)(=O)N4CCCC4)cc3)c(=O)[nH]c2c1,-9%
Cc1cccc(OCC(=O)Nc2ccc3c(c2)nc(CCN2CCN(C)CC2)n3C)c1,-1%
Cc1ccc(C(=O)O)cc1NC(=S)NC(=O)C(c1ccccc1)c1ccccc1,-6%
COC(=O)c1cccc(C23CC4(C2)[C@H](CN(Cc2ccc(C(F)(F)F)cc2)[C@@H]4c2ccccc2)C3c2ccc(Cl)nc2)c1 (stereo partly specified),6%
Cn1cnnc1SCCn1c(N2CCCCC2)nc2c1c(=O)[nH]c(=O)n2C,-4%
N#C/C(C(=O)NCCc1ccccc1)=C1/N=C(NC(=O)c2cccs2)c2ccccc21,-7%
O=C(Nc1ccc(S(=O)(=O)Nc2ncccn2)cc1)c1cccnc1,2%
COc1cccc(/C=N/NC(=O)CCCC(=O)NC2CCCCC2)c1,-2%
O=C(N/N=C/C=C/c1ccc([N+](=O)[O-])cc1)C1COc2ccccc2O1 (stereo unspecified),19%
O=C(OCC(=O)N1CCCCCC1)c1ccc(F)cc1F,-2%
COc1ccc(Cl)cc1NC(=O)c1nc2nc(C)cc(C(F)F)n2n1,-4%
O=C(O)COCC(=O)NCc1nc(-c2ccc(C(F)(F)F)cc2)no1,-1%
CCN(CC)CCOC(=O)c1c(C)oc2ccc(O)cc12,0%
O=C(COc1ccc(S(=O)(=O)N2CCOCC2)cc1)Nc1ccc(Cl)c(C(F)(F)F)c1,-8%
O=C(Cn1cc2c(n1)CCCCC2)Nc1c(F)c(F)cc(F)c1F,-3%
COc1ccccc1CNC(=O)Cn1ccsc1=N,1%

# Continued; it opens with the four that closed the last part.
SMILES,KAT2A inh
CCN(CC)CCOC(=O)c1c(C)oc2ccc(O)cc12,0%
O=C(COc1ccc(S(=O)(=O)N2CCOCC2)cc1)Nc1ccc(Cl)c(C(F)(F)F)c1,-8%
O=C(Cn1cc2c(n1)CCCCC2)Nc1c(F)c(F)cc(F)c1F,-3%
COc1ccccc1CNC(=O)Cn1ccsc1=N,1%
COc1ccccc1N1CCN(C(CNS(=O)(=O)c2ccccc2)c2ccccc2)CC1 (stereo unspecified),-10%
CC1CC(C)CN(c2cc(=O)n(Cc3ccc(F)cc3)c(=O)[nH]2)C1 (stereo unspecified),2%
CN(C)/C=N/c1[nH]ncc1C#N,-6%
CCCCOCCOCCOCCCC,?
Cc1ccccc1-c1nnc(CN2CCN(c3cc(Cl)ccc3C)CC2)o1,-20%
Cc1ccc2c(c1)/C(=N/OC(=O)c1ccc(F)cc1)CCS2,-5%
CC(C)NC(=O)C1CCN(C2CCN(C(=O)C3=CCCC3)CC2)CC1,-4%
Cn1c(=O)oc2cc(S(=O)(=O)N3CCCC(C(=O)N4CCN(c5ccccc5F)CC4)C3)ccc21 (stereo unspecified),3%
O=C(N/N=C1\CCc2ccccc21)c1ccc(O)cc1,21%
O=C(Nc1ccc2c(c1)N(C1CCCC1)C(=O)c1ccccc1S2)c1ccccc1F,0%
O=C(c1cccs1)N1CCCC(N2CCN(c3ccc(F)cc3)CC2)C1 (stereo unspecified),-9%
CN1CCN(C(=O)CC23CC4CC(CC(C4)C2)C3)CC1,-2%
Cc1ccc(C)c(COc2coc(CN3CCN(C(=O)c4ccco4)CC3)cc2=O)c1,1%
COc1ccc(CNC(=O)C(=O)NCC2OCCN2S(=O)(=O)c2cccs2)cc1 (stereo unspecified),-6%
Cc1cnc(NC(=O)c2ccc3c(c2)OCCO3)s1,1%
O=C(C1CC(=O)N(c2ccc(Cl)cc2)C1)N1CCCCCC1 (stereo unspecified),1%
CCOC(=O)c1cc(S(=O)(=O)N2CCN(c3ccc(OC)cc3)CC2)[nH]n1,2%
COc1ccc(/C=C/C(=O)NCCc2ccc(S(N)(=O)=O)cc2)cc1,0%
O=C(Oc1ccc(-c2nnco2)cc1)c1ccco1,-15%
CCN(C(=O)CSc1nc(-c2ccccc2)c(-c2ccccc2)[nH]1)C1CCS(=O)(=O)C1 (stereo unspecified),0%
CC(C)CNS(=O)(=O)c1ccc(C(=O)Nc2ccc3c(c2)OCCO3)cc1,-3%
CN(c1c(C#N)c(C(F)(F)F)nn1C)N(S(C)(=O)=O)S(C)(=O)=O,-8%
Cc1ccc(N2C(=O)C(F)(F)C2c2ccccc2)cc1 (stereo unspecified),-11%
CCOc1ccc(N(CC(=O)NC2CCCC2)C(=O)c2ccc(C)s2)cc1,-4%

# 2 entries from above in a different format:
> CN(c1c(C#N)c(C(F)(F)F)nn1C)N(S(C)(=O)=O)S(C)(=O)=O
  KAT2A inh: -8%
> Cc1ccc(N2C(=O)C(F)(F)C2c2ccccc2)cc1 (stereo unspecified)
  KAT2A inh: -11%

# Further entries
SMILES,KAT2A inh
O=C1NCCN1C(=O)C12CC3CC(CC(C3)C1)C2,-6%
O=C1NC(c2cccc([N+](=O)[O-])c2)=CCN1c1ccccc1O,-4%&-6%
Cc1nn(C)c2c(=O)c(=O)c2n(C)[nH]1,-22%
CSC1=NCCN1S(=O)(=O)c1ccc(C)cc1,-2%
COc1ccccc1C(=O)Nc1cccc2c1CCCC2,-13%
Cn1cc(CNC(=O)/C=C/c2ccc(Cl)cc2)cn1,0%
Cc1ccc(NC(=O)CCNS(=O)(=O)c2cccc3nsnc23)cc1,-12%&1%
COc1ccccc1CCNC(=O)C(=O)NCC1CCCN1S(=O)(=O)c1ccccc1 (stereo unspecified),-1%
CCCCC(=O)NC(=S)Nc1ccc(NC(=O)C(C)C)c(OC)c1,-9%
CCCCCCCC(=O)Nc1ccc(C(=O)N/N=C/c2cccc([N+](=O)[O-])c2)cc1,-16%
COc1ccccc1CNC(=O)c1ccc(S(=O)(=O)N2CCCC2)cc1,-11%
Cc1ccc(N(CC(=O)N2CCN(c3ccc(Cl)cc3)CC2)S(=O)(=O)c2c(C)nn(C)c2C)cc1,-5%
O=C(CN1C(=O)CSc2ccc(S(=O)(=O)N3CCOCC3)cc21)NCc1cccnc1,-9%
CC(=O)NC(CC(=O)OCC(=O)c1c(N)n(CC(C)C)c(=O)n(C)c1=O)c1ccccc1 (stereo unspecified),1%
CCC(CO)Oc1cc(NCc2ccccc2Cl)c2ncn(C(C)C)c2c1 (stereo unspecified),-3%
O=C(Nc1ccc(Cl)cc1Cl)c1cc(S(=O)(=O)N2CCc3ccccc32)ccc1F,-3%
Cc1ccccc1OCC(=O)Nc1nnc(S(=O)(=O)N2CCCC2)s1,-1%&-14%
COc1cc(OC)c(NC(=O)C(C)n2nc(-c3ccc(C)cc3)c3c(c2=O)CCCC3)cc1Cl (stereo unspecified),-13%
COC(=O)CNS(=O)(=O)c1ccc(OC)cc1,-2%
O=S(=O)(c1ccc(Cl)cc1)c1nnn2c1nc(NCc1ccccc1)c1sccc12,-12%
C/C(=N\NC(=O)c1nn(C)c(C)c1Br)c1ccc(NC(=O)C2CCCC2)cc1,-5%
COc1ccc(OC)c(/C=N/NC(=O)CSc2cc(C)nc3c(OC)cccc23)c1,-5%
O=c1[nH]c2cc3c(cc2cc1CN(Cc1ccco1)C(=S)NCC1CCCO1)OCCO3 (stereo unspecified),2%
C=CCOc1c(Br)cc(/C=N/NC(N)=O)cc1OC,-5%

# The last 6 entries of the section above lead into the next:
SMILES,KAT2A inh
COC(=O)CNS(=O)(=O)c1ccc(OC)cc1,-2%
O=S(=O)(c1ccc(Cl)cc1)c1nnn2c1nc(NCc1ccccc1)c1sccc12,-12%
C/C(=N\NC(=O)c1nn(C)c(C)c1Br)c1ccc(NC(=O)C2CCCC2)cc1,-5%
COc1ccc(OC)c(/C=N/NC(=O)CSc2cc(C)nc3c(OC)cccc23)c1,-5%
O=c1[nH]c2cc3c(cc2cc1CN(Cc1ccco1)C(=S)NCC1CCCO1)OCCO3 (stereo unspecified),2%
C=CCOc1c(Br)cc(/C=N/NC(N)=O)cc1OC,-5%
Cc1ccc(C(=O)N2CCC3(CC2)Oc2ccc(F)cc2C(=O)C32CC(c3ccccc3)=NO2)s1 (stereo unspecified),2%
Cc1ccc2nc(C)cc(N/N=C/c3cccnc3)c2c1,0%
CCS(=O)(=O)N1CCN(c2c(Cl)cccc2[N+](=O)[O-])CC1,19%
COc1ccc(C(=O)c2c3ccc([N+](=O)[O-])cc3[n+]([O-])n2CCCN)cc1,-10%
COc1ccc(-c2noc(-c3ccc(NCc4ccco4)c([N+](=O)[O-])c3)n2)cc1,-1%
CCCN(CCC)C(=O)Cn1c(=O)n(CCCCC(=O)NCc2ccco2)c(=O)c2ccccc21,-6%[0.501 µM]
COc1ccc(S(=O)(=O)N2CCCCCC2)cc1C(=O)OCC(=O)NC(N)=O,2%
Cc1ccc(NC(C)C(=O)N/N=C/c2ccc([N+](=O)[O-])s2)cc1 (stereo unspecified),-4%
COc1ccccc1N(CC(=O)NC1CCCCC1)C(=O)Cn1nnc(-c2ccc(C)o2)n1,-3%
CCOC(=O)c1ccc(NC(=O)CCOc2ccc(OC)cc2)cc1,-2%
CCOC(=O)c1[nH]c(C)c(CCC(=O)Nc2cccc(SC)c2)c1C,-22%
O=C(Cc1cccs1)N1CCN(c2ccccn2)CC1,3%
CC(=O)Cc1nsc(NC(=O)c2ccc(COc3ccccc3Cl)o2)n1,-4%
CS(=O)(=O)N(CC(=O)N1CCCC1)c1ccc2c(c1)OCCO2,-3%
OC(CNCCc1ccc(Cl)cc1)COCc1ccco1 (stereo unspecified),-3%
Cc1ccc2nc(N(Cc3cccnc3)C(=O)CCc3ccccc3)sc2c1,-3%
Cc1c(NC(=O)C2CCCO2)cccc1[N+](=O)[O-] (stereo unspecified),13%
CCOC(=O)C1=C(N)Oc2cc(C)[nH]c(=O)c2C1c1ccncc1 (stereo unspecified),-1%
CC(C)(C)NC(=O)NC(=O)COC(=O)c1ccc(OC(F)(F)F)cc1,-9%
CCCN(C(=O)/C=C/c1nc2ccccc2s1)C1CCS(=O)(=O)C1 (stereo unspecified),-1%
Nc1cc(Cl)nc(N/N=C/c2ccccc2[N+](=O)[O-])n1,-4%
COCCn1ccc2c(OCC(=O)NCc3ccc(F)cc3)cccc2c1=O,-11%
COc1cccc(C2C(C(N)=O)=C(C)Nc3nc(-c4ccccc4Cl)nn32)c1 (stereo unspecified),-5%

# Bioassay records (PubChem)

# Only part of the results is shown, and most or all hits are left out here.
